# SARS PLpro yeast: qHTS of Yeast-based Assay for SARS-CoV PLP; S. cerevisiae expressing SARS-CoV PLpro, growth rescue; control for the full effect not named in the record; Potency, µM (series often up to 32.9 µM), inactives show at the top dose activity, positive = growth rescue; hit rate 0.19% among 330,000; also: 0% is about no effect; nearly all actives have a fitted effect of over 55% in size; growth read by luminescence after 48 h
# RE007 growth inh: qHTS Assay for Inhibitors of the HIV-1 protein Vpr | Potency, µM (titrated, usually from 92.2 µM), for the others: top-dose activity change, negative = less growth | hit rate 0.21% among 360,000 | S. pombe RE007 Vpr strain, BacTiter-Glo ATP luminescence, 24 h; control for the full effect not named in the record | AID 651644, 2012; active = well fitted falling curve with a large enough effect; inconclusive = small, poorly fitted or top-dose-only effect; inactive = no such curve, though single readings can be large or run the other way;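 also: % is scaled to controls: 0 for no effect and ±100 for the full control effect; nearly all actives have a fitted effect of over 50% in size; the assay follows cell death caused by Vpr and the record does not say whether a fall means rescue or toxicity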
#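 Fission yeast strain RE007, carrying one chromosomally integrated HIV-1 vpr copy, was seeded at OD 0.01 in PMG+AL medium with 23 nL pinned compound. After 24 h at 30 °C and 99% humidity, viability was read by BacTiter-Glo luminescence.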
# NS1 function inh: qHTS Assay for Inhibitors of Influenza NS1 Protein Function; S. cerevisiae slowed by influenza A NS1, growth recovery by OD600; Potency, µM (titrated, usually from 46.1 µM), without a hit: top-dose activity, positive = more growth; hit rate 0.4% among 270,000; AID 2326, 2010; also: actives are rising curves; nearly all actives have a fitted effect of over 50% in size
#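 In this qHTS, NS1 from influenza A is expressed in budding yeast, where it slows growth. Cells are switched from glucose to 2% galactose medium (pH 6.0, -URA), treated with compound, and growth recovery is read at OD600.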
# Cruzain Triton: qHTS Assay for Promiscuous and Specific Inhibitors of Cruzain (with detergent) | purified cruzain, Z-FR-AMC fluorescence, 0.01% Triton | AID 1478, 2009 | hit rate 0.43% among 200,000 | Potency, µM, inactives show max response, negative = inhibition, most hits filed as inhibitors | Cruzipain (Trypanosoma cruzi), P25779; active = well fitted curve in the direction sought with a large enough effect; inconclusive = small, poorly fitted or top-dose-only effect, or another doubt; inactive = no such curve, though single readings can be large; an effect the other way counts as inactive or inconclusive;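 also: plate controls were neutral wells for no effect and buffer without enzyme for full effect; nearly all actives have a fitted effect of over 40% in size; top concentration of the series not given in the record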
# Target sequence (P25779 123-467 limits assumed): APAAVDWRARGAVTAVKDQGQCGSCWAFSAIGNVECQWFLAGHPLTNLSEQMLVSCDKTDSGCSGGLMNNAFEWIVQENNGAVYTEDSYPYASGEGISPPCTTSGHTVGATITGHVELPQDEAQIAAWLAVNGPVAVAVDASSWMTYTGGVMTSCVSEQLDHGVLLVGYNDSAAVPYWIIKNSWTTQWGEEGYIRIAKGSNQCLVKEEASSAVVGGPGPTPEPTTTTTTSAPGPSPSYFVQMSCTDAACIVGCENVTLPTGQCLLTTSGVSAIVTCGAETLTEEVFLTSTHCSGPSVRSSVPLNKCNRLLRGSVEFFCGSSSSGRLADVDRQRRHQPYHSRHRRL
#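 Z-FR-AMC hydrolysis (2 uM substrate) by cruzain (1.5 nM) monitored kinetically at ex 360/em 450 nm after 15 min room-temperature compound exposure; 0.01% Triton X-100, pH 5.5, 5 mM DTT.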
# LASV entry inh: qHTS for Inhibitors of binding or entry into cells for Lassa Virus; hit rate 1.2% among 300,000; Potency, µM (doses to about 37.9 µM), for the others: top-dose activity change, negative = inhibition, usual class: inhibitors; Lassa virus pseudotype entry inhibition, cell reporter; control for the full effect not named in the record; AID 540256, 2011; active means well fitted inhibition curve with a large enough effect; inconclusive means small, poorly fitted or top-dose-only effect, or effect the other way; inactive means flat fitted curve, though single readings scatter; tested in HEK293 cells; also: % is scaled to controls: 0 for no effect and ±100 for the full control effect; nearly all actives have a fitted effect of over 50% in size; luciferase read-out
# Marburg entry inh: qHTS for inhibitors of binding or entry into cells for Marburg Virus | Marburg virus pseudotyped entry inhibition, cell reporter; control for the full effect not named in the record; about a third of the inactives were read at about 46 µM | Potency, µM (top dose mostly 37.8 µM), inactives show top-dose activity change, negative = inhibition, usual class: inhibitors | hit rate 1.8% among 300,000 | AID 540276, 2011; active = well fitted inhibition curve with a large enough effect; inconclusive = small, poorly fitted or top-dose-only effect, or effect the other way; inactive = flat fitted curve, though single readings scatter; tested in HEK293 cells; about a fifth of its hits are not listed in these tables; also: % is scaled to controls: 0 for no effect and ±100 for the full control effect; luciferase read-out
# StopGo reporter: High Throughput Screening for Foot and Mouth Disease Virus Antivirals | human cells with a luciferase reporter of 2A StopGo recoding; control for the full effect not named in the record | Potency, µM (top dose mostly 57.9 µM), without a hit: at the top dose signal change, negative = less light | hit rate 1.2% among 410,000 | AID 1159524, 2015; active = well fitted falling curve with a large enough effect; inconclusive = small, poorly fitted or top-dose-only effect; inactive = no such curve, though single readings can be large or run the other way; tested in HEK293T cells; also: % is scaled to controls: 0 for no effect and ±100 for the full control effect; nearly all actives have a fitted effect of over 45% in size; luciferase light after 4 h
# Cruzain noTriton: qHTS Assay for Promiscuous and Specific Inhibitors of Cruzain (without detergent); Cruzipain (Trypanosoma cruzi), P25779; Potency, µM, for the others: max response, negative = inhibition, hits mostly inhibitors; purified cruzain, Z-FR-AMC fluorescence, no detergent; hit rate 2.3% among 200,000; AID 1476, 2009; active = well fitted curve in the direction sought with a large enough effect; inconclusive = small, poorly fitted or top-dose-only effect, or another doubt; inactive = no such curve, though single readings can be large; an effect the other way counts as inactive or inconclusive;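 also: plate controls were enzyme without inhibitor for no effect and buffer without enzyme for full effect; nearly all actives have a fitted effect of over 40% in size; top concentration of the series not given in the record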
#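 Purified cruzain at 1.5 nM, pre-incubated 15 min with compound at room temperature in 100 mM sodium acetate pH 5.5, 5 mM DTT, 0.00005% Triton X-100. Reaction started with 2 uM Z-FR-AMC; AMC fluorescence increase over 60 s gives rate.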
# * marks the source's active call; other numbers are inactive results; ? = inconclusive; . = no result given; & = joins results of further samples; [ ] = another dose, or the depositor's remark. Unless noted, calls follow the shape of the dose curve; as a rule, active means well fitted rising curve with a large enough effect; inconclusive means small, poorly fitted or top-dose-only effect; inactive means no such curve, though single readings can be large or run the other way. Potency is read from the fitted curve at half-maximal effect. Hits appear at their usual frequency; about 4.6% have a hit in one of these screens.
SMILES,SARS PLpro yeast,RE007 growth inh,NS1 function inh,Cruzain Triton,LASV entry inh,Marburg entry inh,StopGo reporter,Cruzain noTriton
O=[N+]([O-])c1ccc2[nH]c(O)c(N=NC3CCS(=O)(=O)C3)c2c1 (stereo not drawn),-5%,-7%,-2%,.,-20%,16%[46.1 µM],3%,.
Cc1nc2nc(N)nn2c(C)c1C/C=C/c1ccccc1,1%,11%,.,.,5%[46.1 µM],-6%[46.1 µM],-6%,.
O=C(NC1CCCCC1)c1cccc(S(=O)(=O)N2CCOCC2)c1,2%,15%,3%,1.9%,-7%,25%,6%,4%
COc1ccccc1Cc1noc(COc2cccc(C)c2C)n1,-10%,2%,-10%,-3.1%,11%,19%,4%,0%
COC(=O)c1ccc(CSc2nc3c(c(=O)n2-c2ccc(Br)cc2)SCC3)o1,14%,-10%,-33%,-2.4%,-6%,20%&-1%,-16%,?
Cc1cc(Cl)ccc1Nc1ncccc1C(N)=O,-40%,-17%,-78%,-3.5%,?,?,48%[activator],0%
COc1ccc(C2=Nn3c(C)nnc3SC2)cc1,-3%,21%,6%,.,.,.,9%,.
CC(C)(C)c1cc[n+](/C(C(=S)Nc2ccccc2F)=C(/[O-])c2ccc3c(c2)OCCO3)cc1,2%,-23%,11%,.,12%,-5%[46.1 µM],18%,.
Cc1cc(C(=O)Nc2c(C)nn(Cc3ccccc3)c2C)on1,1%,-15%,8%,1.8%,.,.,-18%,-2%
C=CCOc1ccc(/C=C/C(=O)Nc2ccc(C(=O)NC)cc2)cc1,-12%,3%,5%,2.5%,-1%,-6%,9%,-4%
CCOC(=O)C1=C(COC(=O)/C=C/c2ccc(OC)c(OC)c2)NC(=O)NC1C (stereo not drawn),1%,6%,.,.,-10%,-21%,?,.
O=C(NCC1CCCN1S(=O)(=O)c1cccs1)c1ccc(F)cc1 (stereo not drawn),3%,-4%,.,.,1%[46.1 µM],-1%,1%,.
CN(CCC1CCOCC1)C(=O)CC1C(=O)NCCN1Cc1cccc(F)c1 (stereo not drawn),-8%,-7%,12%,.,1%,18%,-14%,.
C=CCN1C=C2C(=O)C(C)(OC(=O)c3cccs3)C(=O)C=C2C=C1CCCC(=O)OC (stereo not drawn),-3%,13%,-7%,.,.,.,-1%,.
COCCN(C(=O)c1snc(C(N)=O)c1N)C(C(=O)NC1CCCC1)c1cc(OC)c(OC)c(OC)c1 (stereo not drawn),2%,16%,-8%,.,-2%,13%[46.1 µM],3%,.
CC1CCCC(C)N1CCCNC(=O)Cn1ncc2c3ccccc3n(C)c2c1=O (stereo not drawn),1%,2%,12%,.,.,.,-3%,.
O=C(CSC1=NCCS1)Nc1nc2ccccc2s1,-4%,-27%,-4%,-6.6%,8%,-14%,1%,-11%
Cc1[nH]c2ccccc2c1C(=O)/C=C/c1ccccc1,-24%,-4%,-99%,-7.4%,16%,?,-15%,-5%
CSc1ccc(Cl)c(C(=O)NNC(=O)c2cccs2)c1,-22%,-7%,.,.,8%[46.1 µM],-2%[46.1 µM],20%,.
O=C(NCc1ccccc1)NS(=O)(=O)c1ccccc1Cl,4%,-2%,8%,2.7%,-4%,9%,6%,-1%
O=C(NCCCN1CCCCC1)C1CCN(c2ncnc3c2nc2n3CCCCC2)CC1,-4%,-5%,-1%,.,13%[46.1 µM],?,-3%,.
COc1ccc(C2CC(c3ccccc3OC(C)=O)=NN2C(=O)/C=C/c2ccccc2)cc1OC (stereo not drawn),11%,-17%,?,-9.9%,?,?,-19%,?
CCCCOC(=O)CSC1=C(C#N)C(c2ccccc2OCC)C(C#N)C(=O)N1 (stereo not drawn),1%,5%,-5%,-2.9%,8%,?,-8%,-4%
CCOc1ccc(NC(=O)Nc2cc(C)on2)cc1,-7%,-5%,-17%,4.2%,?,16%,50%[activator],-3%
CCc1cc(C(=O)Cc2nc3ccccc3[nH]2)c(O)cc1O,1%,5%,-4%,-5.4%,-14%,11%,12%,-21%
CCN(CC)c1nn2c(=O)c(C(=O)NCc3ccccc3Br)cnc2s1,.,.,.,-22%,?,.,-17%,-21%
CCOc1ccc(OCc2cccc(C(=O)N(CC)CC)c2)cc1,-1%,-6%,0%,.,?,?,-27%,.
Nc1nc(Nc2ccccc2Br)nc(C(F)(F)F)n1,-11%,-9%,-33%,-0.9%,.,.,20%,-5%
COc1ccc(C2c3[nH]c4ccccc4c3C[C@H]3C(=O)N(CC(C)C)CC(=O)N23)c(OC)c1 (stereo partly drawn),-3%,-1%,4%,.,-6%,-3%,52%[activator],.
Cn1c(-c2ccccc2)cnc1NCc1cc2c(cc1[N+](=O)[O-])OCO2,2%,-23%,25%,-3.6%,?,?,4%,-1%
Clc1cccc(Cc2nn[nH]n2)c1,2%,0%,4%,.,.,.,-9%,.
c1ccc(CC(Nc2ccccn2)c2ccccc2)cc1 (stereo not drawn),7%,-16%,.,.,-13%,?,?,.
CS(=O)(=O)N(CC(=O)N1CCN(Cc2ccccc2)CC1)c1cccc(F)c1,2%,4%,-7%,.,-7%[46.1 µM],6%[46.1 µM],-3%,.
C=C1CCC[C@]2(C)C[C@H]3OC(=O)C(CN(Cc4ccc(OC)c(OC)c4)CC(C)O)[C@H]3CC12 (stereo partly drawn),2%,?,-4%,.,.,.,?,.
CC(NC(=O)c1ccc(Br)o1)c1ccc(-n2ccnc2)cc1 (stereo not drawn),-4%,1%,.,.,9%[46.1 µM],?,-20%,.
Cc1cc(N)ccc1-n1nc2ccccc2n1,.,?,.,.,-9%[46.1 µM],?,6%,.
CSc1ccccc1NC(=O)C1CCCN(S(C)(=O)=O)C1 (stereo not drawn),4%,-11%,4%,.,8%[46.1 µM],?,-10%,.
Cn1c(=O)c2c(nc(N3CCC(C(N)=O)CC3)n2CCSc2nc3ccccc3s2)n(C)c1=O,0%,0%,-2%,6.1%,.,-3%,2%,-9%
O=C(NCc1cccs1)C1CCCN(C(=O)Nc2ccc(F)cc2)C1 (stereo not drawn),-7%,46%,-2%,.,-5%,-29%[46.1 µM],-10%,.
COc1ccc(CNS(=O)(=O)c2ccc3oc(C(=O)O)c(C)c3c2)cc1,?,-10%,12%,1.1%,3%,-13%,6%,0%
Cc1cnc(C(=O)Nc2ccc(C(=O)N3CCCCC3)cc2)cn1,8%,9%,?,0.7%,21%,17%[46.1 µM],23%,11%
COC(=O)c1cnc[nH]1,4%,16%[18.4 µM],6%,.,.,.,-27%,.
CCCCSc1nnc(CSc2ncccn2)n1C,0%,-7%,.,.,5%,-3%[46.1 µM],10%,.
COC(=O)c1ccccc1COn1c(=O)c[n+]([O-])c2ccccc21,-26%,-10%,1%,-7.2%,-6%,?,-20%,-12%
O=C(COc1coc(CN2CCCc3ccccc32)cc1=O)Nc1ccccc1,-1%,2%,.,.,-16%,6%,-3%,.
CC[C@H](C)[C@H](NC(N)=O)C(=O)NCCc1ccc(Cl)cc1Cl,0%,-4%,.,.,19%,-26%[46.1 µM],-7%,.
COc1ccc2c(c1)Cc1sc(NC(=O)c3cccs3)nc1-2,-17%,-1%,-8%[9.22 µM],-2.2%,38%,?,-20%,-10%
O=C(c1cccc(Cl)c1)N1CCN(Cc2ccncc2)CC1,-24%,5%,6%,-1.7%,0%,1%,?,-2%
Cc1ccc(/C=C/C(=O)OC(C)C(=O)Nc2ccc(Cl)cn2)o1 (stereo not drawn),-11%,5%,18%,?,-1%,?,-13%,?
CC(c1ccco1)N(C(=O)c1cccc(Br)c1)c1ccccn1 (stereo not drawn),-1%,2%,-9%,.,?,?,72%[activator],.
CCc1ccc(Nc2nc3ccccc3c(=O)s2)cc1,22%,25%,29%,1.6%,1%,?,22%,-24%
COCC(C)Nc1ncnc2c1cnn2-c1cccc(Cl)c1 (stereo not drawn),.,.,.,-0.3%,?,.,30%,-8%
Cc1ccc(CCNC(=O)CCN2N=C(c3ccc(C)cc3)CCC2=O)cc1,.,.,.,2.4%,-24%[46.1 µM],.,-15%,?
CCOc1ccc(-c2nnc(N3CCCCC3)c3ccccc23)cc1,-4%,-7%,-2%,-6.4%,-24%,2%,?,-16%
CCOC(=O)Cc1csc(NC(=O)CSc2nc(-c3ccccc3)c(C#N)c(=O)[nH]2)n1,0%,0%,.,.,9%[46.1 µM],?,11%,.
COc1cccc(N(C(=O)Cn2nnc(-c3ccc(F)cc3)n2)C(C(=O)NCC2CCCO2)c2ccc(Cl)cc2)c1 (stereo not drawn),1%,-5%,2%,.,.,.,-14%,.
Cn1cc(C(=O)C(=O)NC2CCCCC2)c2ccccc21,1%,-18%,-4%,.,.,.,79%[activator],.
CC(C)/C=C/C(=O)N1CCC(N2CCC(C(=O)NCc3ccccn3)CC2)CC1,-1%,-2%,-5%,.,.,.,-16%,.
CC12CCC(C(=O)C1)C1(C)CCCC(=O)C21 (stereo not drawn),.,1%,.,.,19%[46.1 µM],1%,-13%,.
COc1ccc(CNC(=O)c2ccc(-c3nc(CS(=O)c4ccc(C)cc4)c(C)o3)cc2)cc1 (stereo not drawn),.,.,.,-1.5%,-19%[46.1 µM],.,0%,11%
CC(=O)c1ccc(Nc2nc(=O)c3cccnc3s2)cc1,.,21%,4%,0.8%,?,?,47%[activator],0%
